Bioassay records: PubChem BioAssay, Johns Hopkins Ion Channel Center
KCNQ2 enhance – potentiators of rat KCNQ2 potassium channel; CHO-K1 KCNQ2, FluxOR thallium flux fluorescence; active compounds read high; B-score at 10 µM; actives 0.54% (n = 310,000); AID 2239, 2010;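 active = fluorescence ratio B-score at least 3 SD of library B-scores, with initial fluorescence B-score within 3 SD, cut at about 5.3 in these data; same plate scores as AID 2156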;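 note: B-score of peak minus minimum over baseline fluorescence ratio after K+ and Tl+ stimulus; positive B-score means potentiation of KCNQ2 with more thallium influx and brighter signal; only the inactives scoring about 0 or higher are listed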
Target sequence (O88943 whole entry, looked up): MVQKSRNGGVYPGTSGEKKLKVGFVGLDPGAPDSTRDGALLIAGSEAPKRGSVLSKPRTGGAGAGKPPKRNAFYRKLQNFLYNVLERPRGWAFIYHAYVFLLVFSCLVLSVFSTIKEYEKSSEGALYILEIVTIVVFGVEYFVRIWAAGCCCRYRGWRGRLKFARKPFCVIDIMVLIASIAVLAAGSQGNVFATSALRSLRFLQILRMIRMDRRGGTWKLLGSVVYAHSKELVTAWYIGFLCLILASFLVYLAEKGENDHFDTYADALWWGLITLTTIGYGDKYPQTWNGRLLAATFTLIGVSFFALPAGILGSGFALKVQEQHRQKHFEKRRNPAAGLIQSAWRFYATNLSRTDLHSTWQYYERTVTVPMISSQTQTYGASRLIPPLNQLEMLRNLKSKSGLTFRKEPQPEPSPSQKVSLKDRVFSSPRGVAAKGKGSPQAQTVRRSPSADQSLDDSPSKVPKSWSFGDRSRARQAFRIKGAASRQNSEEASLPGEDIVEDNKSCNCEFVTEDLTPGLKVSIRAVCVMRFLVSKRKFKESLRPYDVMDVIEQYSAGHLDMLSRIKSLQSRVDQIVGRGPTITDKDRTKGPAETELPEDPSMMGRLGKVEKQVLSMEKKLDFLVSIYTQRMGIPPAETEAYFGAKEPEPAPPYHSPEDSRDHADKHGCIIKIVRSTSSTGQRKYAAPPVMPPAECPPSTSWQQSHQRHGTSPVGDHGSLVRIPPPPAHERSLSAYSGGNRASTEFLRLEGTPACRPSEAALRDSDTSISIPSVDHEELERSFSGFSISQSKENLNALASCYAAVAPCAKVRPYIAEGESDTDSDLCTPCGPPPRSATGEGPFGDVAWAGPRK
KCNQ2 enhance baseline – further read-out of KCNQ2 enhance, marked with its call; B-score; compound at 10 µM; measured here: initial fluorescence intensity artifact check;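 brightness before thallium and not channel activity; 0 = typical well and far values either way flag optical interference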
Numbers without * were called inactive. Not all compounds are listed; rates above refer to the full screens.

KCNQ2 enhance,KCNQ2 enhance baseline,mol
0.03,-2.2,Cc1cc(C)n(CC(=O)Nc2ccccc2)n1
0.53,-0.77,N#C/C(=C\c1ccc(-c2ccc(Br)cc2)o1)C(=O)NCCc1c[nH]c2ccccc12
0.6,0.28,CCOc1ccc(C(=O)OCC(=O)N2CC(C)OC(C)C2)cc1OCC (stereo not given)
0.27,-0.68,NC(=O)c1ccc(NC(=O)Cn2c(=O)n(-c3ccccc3)c(=O)c3oc4ccccc4c32)cc1
0.9,-0.1,COC(=O)c1ccc(C(C2C(=O)CC(C)(C)CC2=O)C2C(=O)CC(C)(C)CC2=O)cc1
1.01,1.19,O=C(NC1=NCCS1)c1sc2ccccc2c1Cl
1.34,0.55,COc1ccc(C(=O)NC(C)c2nc3ccccc3[nH]2)cc1OC (stereo not given)
1.12,0.01,O=C(Nc1ccc(F)cc1)C1CCN(S(=O)(=O)c2cccs2)CC1
0.15,1.47,COC(=O)c1sc(N2C(=O)C(O)=C(C(=O)c3ccc(C)o3)C2c2cc(OC)ccc2OC)nc1C (stereo not given)
0.34,-2.57,CN(CCO)S(=O)(=O)c1ccc2c(c1)C(=NN)c1cc(S(=O)(=O)N(C)CCO)ccc1-2
1.17,0.79,Cc1c(C(=O)OCC(=O)Nc2c(C)n(C)n(-c3ccccc3)c2=O)oc2ccccc12
2.07,-0.73,Cc1cc(C)c2c(SC(C)C)nc(N)nc2n1

KCNQ2 enhance,KCNQ2 enhance baseline,mol
0.26,-0.03,C=C1CCC(OC(C)=O)C2(C)CCC3C(C)C(=O)OC3C12O (stereo not given)
0.17,1.71,CC(=O)NC(=S)Nc1sc2c(c1C(N)=O)CCC(C)C2 (stereo not given)
0.05,-1.88,O=C(Nc1ccccc1SCC1CSc2nc3ccccc3c(=O)n21)c1ccccc1Cl (stereo not given)
0.6,-1.4,Cc1cc(C)nc(NS(=O)(=O)c2ccc(NC(=O)C3CC(=O)N(c4ccccc4)C3)cc2)n1 (stereo not given)
0.33,-0.05,COCCNC(=O)c1cc2oc3ccccc3c2n1C
0.41,2.05,COc1ccc(-n2c(SCC(=O)Nc3ccccc3)nc3c(c2=O)SCC3)cc1
1.18,0,Cc1nn(CCOc2cccc(Br)c2)c(C)c1[N+](=O)[O-]
0.01,0.03,CC(C)Oc1ccc(C(=O)N2CCCC2C(=O)O)cc1 (stereo not given)
0.86,0.07,CCOC(=O)CSc1ccc(C(=O)N2CCN(C)CC2)cc1[N+](=O)[O-]
0.59,-0.16,CCOC(=O)N1CCN(CC(=O)c2ccc(O)c(C)c2O)CC1
0.42,0.95,COc1ccc(C(=O)Nc2nnc(S(=O)(=O)N3CCC(C)CC3)s2)cc1OC
1.31,-1.12,COc1ccc(NC2=NC(=S)N(c3ccc(C)cc3)C23CCCCC3)cc1

The closing 2 records of the part above are carried over, then new ones follow.
KCNQ2 enhance,KCNQ2 enhance baseline,mol
0.42,0.95,COc1ccc(C(=O)Nc2nnc(S(=O)(=O)N3CCC(C)CC3)s2)cc1OC
1.31,-1.12,COc1ccc(NC2=NC(=S)N(c3ccc(C)cc3)C23CCCCC3)cc1
0.41,0.64,COc1ccc(OC(=O)Nc2ccccc2)cc1
0.04,-0.23,C1CCC(c2nn3c(-c4n[nH]c5c4CCC5)nnc3s2)CC1
0.93,0.08,CCN(CC)C(=O)c1sc(N)c(C(=O)OC(C)C)c1C
1.79,0,O=C(Cn1cnc(Cl)c1Cl)c1ccccc1
0.21,-1.38,O=C(NCc1ccncc1)c1cccc(S(=O)(=O)Nc2ccc(SC(F)F)cc2)c1
0.12,-0.53,CCN(CC)S(=O)(=O)c1ccc2c(c1)nc(CCC(=O)Nc1ccc3c(c1)OCO3)n2C
1.38,0.27,Cc1ccc(C(=O)C(C)OC(=O)CN2C(=O)NC3(CCCC3)C2=O)cc1 (stereo not given)
0.57,-0.46,CCOC(=O)c1c(C)n(OCc2ccccc2)c2ccc3c(no[n+]3[O-])c12
0.31,0.08,CC(C)c1nc(SCC(=O)Nc2ccc3c(c2)OCO3)n[nH]1
1.71,0.45,Cc1cc(C)c(NC(=O)c2ccc(S(=O)(=O)N(C)C)cc2)c(C)n1
0.94,7.65,O=[N+]([O-])c1cc(-c2n[nH]c(-c3ccccc3)n2)cc([N+](=O)[O-])c1
0.89,-0.84,COC(=O)C(=Cc1ccc(OCc2ccc([N+](=O)[O-])cc2)c(OC)c1)C(=O)OC

KCNQ2 enhance,KCNQ2 enhance baseline,mol
1.25,-1.25,CC(=O)C1=C(O)C(=O)N(CCC(=O)O)C1c1ccccc1[N+](=O)[O-] (stereo not given)
0.98,0.33,CCOC(=O)NC(=O)CSc1nc2ccc(OCC)cc2[nH]1
0.12,0.08,COc1cc(CC(=O)OCC(=O)NC2CCCCC2)cc(OC)c1OC
0.7,0.18,Cc1nc2ccc(N3C(=O)CCC3=O)cc2[nH]1
0.86,-0.03,COC(=O)c1ccc(OCC(O)CN2C(=O)NC(C)(C)C2=O)cc1 (stereo not given)
0.55,-0.6,Cc1ccc(C2c3sc(=O)[nH]c3SC3C(=O)NC(=O)C32)cc1 (stereo not given)
0.78,-0.11,CCCN1Cc2cccc(C(=O)Nc3ccc(CN4CCCC4)cc3)c2C1=O
4.52,-1.98,O=C(CCCc1ccccc1)Nc1ccc(Br)cc1F
1.13,0.02,CN(c1ccccc1)S(=O)(=O)c1ccc(C(=O)Nc2ncccc2O)cc1
0.2,-0.4,COc1ccc(/C=N\NC(=O)CNC(=O)C(c2ccccc2)c2ccccc2)cc1[N+](=O)[O-]
2.21,-3.61,Cc1ccc(C)c(S(=O)(=O)NNC(=O)Nc2ccccc2Cl)c1
2.61,0.57,Cc1ccc(NC(=O)c2cnn(-c3ccccc3)c2C)cc1C

KCNQ2 enhance,KCNQ2 enhance baseline,mol
0.42,-1.46,Cc1ccccc1SCC(=O)Nc1cccc(C#N)c1
0.01,-1.2,Cn1ncc(N2CCN(S(=O)(=O)c3ccc(Br)cc3)CC2)c(Cl)c1=O
0.37,1.08,O=c1ccc(-c2ccc(S(=O)(=O)N3CCN(c4ccccc4)CC3)o2)n[nH]1
1.48,0.4,CCc1cc(=O)n2[nH]c(C)c(-c3ccc(OC)cc3)c2n1
0.22,1.29,COc1cc(NC(=O)CSc2nc(C)c(C)c(C)n2)cc(OC)c1
1.03,0.61,CCCCCCC(=O)Nc1ccc(C(=O)N/N=C/c2cccnc2)cc1
0.55,0.14,N#Cc1cccc(C#N)c1N1CCC(C#N)CC1
15.2*,-0.34*,O=C(CNCC1CCCCC1)Nc1ccc(OC(F)(F)F)cc1
0.6,-0.73,O=C(NC1CC1)C1=C[C@H](c2coc3ccccc3c2=O)C[C@H](OCCCCO)O1
0.92,-2.5,COc1ccccc1NC(=O)C(C)OC(=O)CCNS(=O)(=O)c1ccc(C)c(C)c1 (stereo not given)
0.24,-2.09,CCOc1ccccc1N=C1SC(CC(=O)Nc2ccc(OC)cc2OC)C(=O)N1CCC1=CCCCC1 (stereo not given)
0.1,-1.14,COc1ccc(-c2cn3cc(C(F)(F)F)cc(Cl)c3n2)cc1

In the list so far, these contain a nitro group on carbon:
KCNQ2 enhance,KCNQ2 enhance baseline,mol
1.18,0,Cc1nn(CCOc2cccc(Br)c2)c(C)c1[N+](=O)[O-]
0.86,0.07,CCOC(=O)CSc1ccc(C(=O)N2CCN(C)CC2)cc1[N+](=O)[O-]
0.94,7.65,O=[N+]([O-])c1cc(-c2n[nH]c(-c3ccccc3)n2)cc([N+](=O)[O-])c1
0.89,-0.84,COC(=O)C(=Cc1ccc(OCc2ccc([N+](=O)[O-])cc2)c(OC)c1)C(=O)OC
1.25,-1.25,CC(=O)C1=C(O)C(=O)N(CCC(=O)O)C1c1ccccc1[N+](=O)[O-] (stereo not given)
0.2,-0.4,COc1ccc(/C=N\NC(=O)CNC(=O)C(c2ccccc2)c2ccccc2)cc1[N+](=O)[O-]

Additional entries follow:
KCNQ2 enhance,KCNQ2 enhance baseline,mol
0.01,-0.36,CCOC(=O)c1ccc(NC(=O)CN2CCN(Cc3ccccc3)CC2)cc1
0.02,-0.12,O=c1c(-c2ccc(F)cc2)coc2c3c(ccc12)OCCO3
0.04,-0.58,N#CCC(=N)N1CCN(c2ccccc2)CC1
0.2,-0.48,Cc1nc2c(C)cccc2cc1C(=O)N/N=C/c1cccc([N+](=O)[O-])c1
2.16,-0.14,CC(C)(C)NCCOCCOc1ccc(Cl)cc1C(C)(C)C
0.09,0.04,COc1ccc(NC(=O)OCCn2c([N+](=O)[O-])cnc2C)cc1
0.27,-0.61,COC(=O)c1cc(-c2cccs2)[nH]n1
0.25,0.88,COC(=O)c1sccc1NC(=O)c1ccnn1C
7.55*,-1.42*,COc1ccc2c(c1)C(=NNc1ccc(C(=O)O)cc1)c1cc(OC)ccc1-2
0.7,-0.5,COc1ccc(C)cc1-n1nnnc1SCn1nnc2ccccc2c1=O
0.71,1.2,COC(=O)Cc1nnc(SCC(=O)Nc2ccccc2)c2ccccc12
0.07,-0.85,Cc1cccc(N2CC(C(=O)Nc3nnc(SCc4ccccn4)s3)CC2=O)c1 (stereo not given)

KCNQ2 enhance,KCNQ2 enhance baseline,mol
0.43,-0.65,COc1ccc(CN2C(=NC(=O)COc3ccccc3)SC3CS(=O)(=O)CC32)cc1 (stereo not given)
0.98,1.66,CCOC(=O)C1(C(=O)O)NC(=O)CC1c1ccccc1 (stereo not given)
0.36,-0.23,Cc1ccc(NC(=O)c2cc(N3C(=O)C4CCCCC4C3=O)ccc2N2CCOCC2)cc1 (stereo not given)
1.46,0.18,COc1ccc(N2CCN(C(=S)NCCc3ccccc3)CC2)cc1
0.56,0.5,CC(C)(C)c1cc(NC(=O)CCSc2nnc3ccccn23)cc(C(C)(C)C)c1
0.18,0.22,N/C(=N\OC(=O)N1CCOCC1)c1ccccc1
0.42,-0.62,COc1ccc(N2CCN(C(=O)c3ccc(C)c(NC(=O)c4ccco4)c3)CC2)cc1
1.21,-0.94,Cc1cc(NC(=O)Nc2ccc(Cl)cc2)n(C)n1
0.56,-3.25,CS(=O)(=O)N(CC(=O)NCCSCc1ccco1)c1ccc2c(c1)OCO2
0.6,1.25,CC(=O)Nc1ccc(S(=O)(=O)N2CCc3cc4c(cc3C2C)OCCCO4)cc1 (stereo not given)
1.06,0.05,N=c1c2c(-c3ccccc3)c(-c3ccccc3)oc2ncn1CCCN1CCOCC1
0.49,-0.08,CC(=O)Nc1ccc(C23CC4CC(CC(C4)C2)C3)cc1

KCNQ2 enhance,KCNQ2 enhance baseline,mol
0.54,-0.33,COCCn1c(=O)[nH]c2cc(C(=O)N3CCN(c4ccccc4)CC3)ccc2c1=O
1.48,-2.49,O=c1c(CN2CCN(Cc3ccccc3F)C(CCO)C2)coc2ccccc12 (stereo not given)
1,-0.59,CCCOC(=O)c1c(N)sc2c1CCC2
0.03,-1.11,Cc1cc(C(=O)OCC(=O)NC(C)(C)C)c2ccccc2n1
0.35,0.7,C/C(=N/NC(=O)Cn1nc2ccccc2n1)c1ccc(F)cc1
0.04,-1.13,COc1ccc(-n2nc(C(=O)NCC(=O)N3CCN(Cc4ccccc4)CC3)c3ccccc3c2=O)cc1
1.71,-0.45,N#C/C(=N\Nc1ccc(S(=O)(=O)N2CCCCC2)cc1)C(N)=S
1.26,-1.56,CCOC(=O)N1CCN(Cc2nc3cc(NC(=O)C(C)C)ccc3n2C)CC1
1.1,0.24,CC1CC1C(=O)OCC(=O)N(C)c1c(N)n(Cc2ccccc2)c(=O)[nH]c1=O (stereo not given)
0.17,-0.67,Cn1c(SCC(=O)N/N=C/c2ccc(O)c(O)c2)nc2ccccc21
1.96,-2.3,Fc1ccc(C2=Nn3c(Cc4ccccc4F)nnc3SC2)cc1
0.49,0.57,CCOC(=O)N1CCN(C(=S)NC2CCCCC2)CC1

Record cards, from the list above. Screens in order: KCNQ2 enhance, KCNQ2 enhance baseline
Profile of Cc1ccc(C2c3sc(=O)[nH]c3SC3C(=O)NC(=O)C32)cc1 (stereo not given) = 0.55, -0.6
Profile of CCOC(=O)N1CCN(C(=S)NC2CCCCC2)CC1 = 0.49, 0.57
Profile of COc1ccc(C(=O)NC(C)c2nc3ccccc3[nH]2)cc1OC (stereo not given) = 1.34, 0.55

(list continues)
KCNQ2 enhance,KCNQ2 enhance baseline,mol
0.04,-0.37,O=C1CCc2cc(S(=O)(=O)NCCc3ccccc3)cc3c2N1CC3
0.05,-2.09,COc1cc(/C=C2/C(=O)NN(c3ccccc3)C2=O)cc(Br)c1O
0.39,-1.02,Cc1ccc2c(c1)C(=O)CC(c1ccc3c(c1)OCCO3)O2 (stereo not given)
0.53,0.29,O=C(Cc1ccsc1)NNC(=O)c1cccc(Cl)c1
0.22,1.53,CCOC(=O)c1c(/N=C/c2cccc([N+](=O)[O-])c2O)sc(C)c1C
0.63,0.15,CN(C)C(=O)COc1ccc2cc(-c3ccccc3)c(=O)oc2c1
0.63,-0.5,CCCCOc1ccc(CN2CCCCC2)cc1
0.3,-0.23,CN(Cc1cccc2cnccc12)C(=O)CCc1nnc(CCc2ccccc2)o1
0.02,0.36,CCOc1ccc(NC(=O)N2CCCC2C(=O)NCC2CCCO2)cc1 (stereo not given)
0.84,-0.04,O=c1[nH]c(-c2ccccc2)nc(-c2ccccc2)c1Cl
0.17,0.85,O=C1C2=C(CCCC2)C(=O)N1CNc1ccccc1
0.61,-0.4,Cn1nc(-c2ccccc2)cc1NC(=O)c1cccs1
0.22,-0.39,COCCNc1nnc(SCC(=O)NNC(=O)c2ccccc2)s1
0.74,-0.88,Cc1ccc(-c2c(C(=O)N/N=C/c3sccc3C)nnn2-c2nonc2N)cc1
